# Bioassay records from PubChem.
# Rce1 inh: blocks yeast Ras-converting enzyme | Q03530 | yeast membranes, quenched prenylated peptide cleavage fluorescence | calls only | actives 0.27% (n = 290,000) | AID 2563;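 active = fall in fluorescence gain of 50% or more versus controls, with final raw signal at or below 3038400; inconclusive = same 50% fall but final raw signal above 3038400; inactive = fall in fluorescence gain under 50%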;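 also: plate controls were neutral control wells for no effect and wells lacking membranes for full effect; tested at 10 µM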
# Target sequence (Q03530 whole entry, looked up): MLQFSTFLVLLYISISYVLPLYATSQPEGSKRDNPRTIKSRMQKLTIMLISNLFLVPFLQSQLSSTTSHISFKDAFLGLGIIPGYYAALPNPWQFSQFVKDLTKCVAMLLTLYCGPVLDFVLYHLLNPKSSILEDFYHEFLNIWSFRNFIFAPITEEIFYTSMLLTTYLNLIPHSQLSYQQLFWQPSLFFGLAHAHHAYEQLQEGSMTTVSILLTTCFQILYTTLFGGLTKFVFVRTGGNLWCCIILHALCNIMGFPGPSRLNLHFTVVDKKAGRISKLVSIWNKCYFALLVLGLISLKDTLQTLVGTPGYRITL
# Yeast UUG start: yeast start codon fidelity modulation. actives 0.13% (n = 350,000). S. cerevisiae UUG-firefly luciferase reporter, luminescence/redox ratio. activity score, % at 18.7 µM;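 active = replicate mean at a twofold rise or more, about +100% in these data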;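 also: firefly luciferase made from a UUG start codon reports start codon fidelity; reporter light over untreated wells divided by growth signal over untreated wells; some hits fall short of that in this replicate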
# Env fusion inh: inhibitors of HIV Env-mediated cell fusion. HeLa-JRFL Env/CEM21 cell fusion, luciferase. inhibition, % at 12.3 µM. actives 1.1% (n = 360,000). AID 651610;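 active = mean replicate inhibition score of at least 50 and every replicate individually at or above 50; inconclusive = only one of the two criteria met; inactive = mean below 50 and not all replicates reaching 50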;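 also: 0% = plate neutral controls and 100% = maraviroc near 300 nM; one replicate is shown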
# MT1-MMP act inh: inhibitors of human MT1-MMP activation | P50281 | HT1080 RFP-PRO-GFP cells, GFP/RFP ratio fluorescence, overnight; percent of plate control window, DMSO zero | GFP/RFP ratio change, % at 20 µM | actives 0.061% (n = 360,000);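 active = GFP/RFP ratio change of at least 30% with cell ATP level not reduced by more than half and red fluorescence within 50% of control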; also: strong numbers were not always called active
#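 Assay system: RFP-PRO-GFP reporter HT1080 cells; read-out basis: GFP/RFP fluorescence ratio; benchmarks: DMSO wells and RFP-L50D-GFP cells; doses: 20 µM single dose, 1% DMSO; schedule: overnight cell settling, then overnight compound exposure, 37 °C, 5% CO2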
# PABP polyA inh: blocks human PABP binding to poly(A) RNA. P11940. actives 1% (n = 290,000). AID 2014. fluorescence polarization. inhibition, % at 35 µM;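 active = 50% or more with normal probe brightness, or confirmed in later tests; inconclusive = above 50% with abnormal brightness, or retests that disagree; inactive = below 50% or failed in later tests; about a fifth of its hits are not listed in these tables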;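 also: calls also rest on retests at 20 µM and on dose response follow-up; controls were probe without protein and protein plus probe with vehicle; some compounds called inactive have numbers as strong as hits; many hits fall short of the cut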
# Target sequence (P11940 whole entry, looked up): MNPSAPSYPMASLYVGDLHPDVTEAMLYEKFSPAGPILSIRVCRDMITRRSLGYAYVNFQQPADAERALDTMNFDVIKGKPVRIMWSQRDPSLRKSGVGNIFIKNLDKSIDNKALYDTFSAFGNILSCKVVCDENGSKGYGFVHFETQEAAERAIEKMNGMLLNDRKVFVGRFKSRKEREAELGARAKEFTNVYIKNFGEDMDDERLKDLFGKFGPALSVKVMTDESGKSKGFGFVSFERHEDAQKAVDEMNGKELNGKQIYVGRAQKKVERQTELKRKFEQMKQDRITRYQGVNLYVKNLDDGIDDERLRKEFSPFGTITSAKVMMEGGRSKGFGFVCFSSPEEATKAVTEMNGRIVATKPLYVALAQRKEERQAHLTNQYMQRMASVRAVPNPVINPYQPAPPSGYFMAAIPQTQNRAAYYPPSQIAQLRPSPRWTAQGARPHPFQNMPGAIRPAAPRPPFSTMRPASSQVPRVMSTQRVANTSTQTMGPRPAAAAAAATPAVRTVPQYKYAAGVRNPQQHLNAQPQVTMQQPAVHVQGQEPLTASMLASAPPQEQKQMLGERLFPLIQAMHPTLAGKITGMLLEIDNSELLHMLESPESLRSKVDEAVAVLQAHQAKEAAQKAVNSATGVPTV
# CSC inhib: cancer stem cell inhibition. cancer stem cell-like cells viability, luminescence. inhibition, % at 7.5 µM. actives 1.1% (n = 300,000). AID 2717;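 active = mean at 75% or more and at least half the replicates too; inconclusive = mean and replicates disagree; tested in HMLE shEcad cells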;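 also: 0% = median of negative and 100% = median of positive control wells; the first replicate is given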
# eIF4H inh: inhibitors of RNA binding by human eIF4H. eIF4H fluorescence polarization binding assay. inhibition, % at 35 µM. actives 0.94% (n = 290,000). AID 2012;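 active = 50% or more with normal probe brightness, or confirmed in later tests; inconclusive = above 50% with abnormal brightness, or retests that disagree; inactive = below 50% or failed in later tests; about a fifth of its hits are not listed in these tables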;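 also: calls also rest on retests at 20 µM and on dose response follow-up; 0% = protein and probe with vehicle and 100% = probe without protein; strong numbers were not always called active; many hits fall short of the cut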
# MT1-MMP act inh RFP: second read-out of MT1-MMP act inh, no call of its own (marks repeat the call); RFP signal change, %; measured here: RFP expression control read;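 0 = vehicle wells; hits needed this value within 50% of zero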
# * = called active by the depositor; i = inactive; ? = inconclusive; . = no result given; + = active, no number; & = joins results of further samples.
nr	Compound	Rce1 inh	Yeast UUG start	Env fusion inh	MT1-MMP act inh
1	O=C(COC(=O)COc1ccc(Cl)cc1)NCCNC(=O)COC(=O)COc1ccc(Cl)cc1	i	-15	2	3
2	COc1ccc(N2CCN(C(=S)NC(C)c3ccccc3)CC2)cc1 (stereo unspecified)	i	.	0	0
3	CC(C)(C)NC(=O)COC(=O)/C=C/c1ccc(F)cc1	i	.	.	2
4	COc1cc(OC)cc(C(=O)N2CCC(N3CCN(c4ccccc4OC)CC3)CC2)c1	i	.	-9	3
5	COc1cccc(NC(=O)CSc2nc3n[nH]c(C)c3c(=N)n2-c2cccc(OC)c2)c1	i	-15	.	5
6	COc1ccc(NC(=O)C/C(C)=N/NC(=O)CCc2ccccc2)c(OC)c1	i	-13	2	4
7	COc1cc(C(=O)NCc2cccs2)ccc1OCc1c(C)noc1C	.	-9	-1	2
8	CC(Oc1ccc(Br)cc1)C(=O)O/N=C(\N)c1ccncc1 (stereo unspecified)	i	-21	0	14
9	CC(=O)c1cccc(OCC(=O)N(Cc2ccco2)c2c(N)n(Cc3ccccc3)c(=O)[nH]c2=O)c1	.	-8	.	-5
10	CCOc1cc(/C=N/NC(=O)Cn2nc([N+](=O)[O-])cc2C)ccc1OCc1ccc(F)cc1	i	-11	.	2
11	Cc1ccc(-c2n[nH]c(=O)c3ccccc23)cc1S(=O)(=O)N(C)CCO	i	-26	?	-1
12	COc1ccc2c(c1)N(C(=O)CSc1n[nH]c(C)n1)C(C)(C)C=C2C	i	-1	.	-2

nr	MT1-MMP act inh RFP	PABP polyA inh	CSC inhib	eIF4H inh
1	4	.	-5	.
2	2	1	-5	-11
3	4	18	-9	5
4	4	4	-2	-2
5	-4	-10	-2	-10
6	2	13	10	2
7	1	.	-19	.
8	-9	10	16	-6
9	-1	.	-6	.
10	-10	-5	-13	-13
11	1	0	-9	-2
12	3	-5	3	-8

# The results go on.
nr	Compound	Rce1 inh	Yeast UUG start	Env fusion inh	MT1-MMP act inh
13	CCC(C)(NC(=O)c1cccc(N2C(=O)CSC2c2ccccc2)c1)C(=O)Nc1ccccc1C (stereo unspecified)	i	17	-155	-4
14	COc1ccc(/C=C(\C#N)C(=O)NCc2ccccc2)cc1O	i	11	-10	1
15	C=CCNC(=O)C1CC(c2cccc(OC)c2)=NO1 (stereo unspecified)	i	7	-22	9
16	COc1ccc(N2CSC3=C(C#N)C(c4ccc(OC)c(OC)c4)CC(=O)N3C2)c(OC)c1 (stereo unspecified)	i	-1	3	-5
17	COc1cc(NC(=O)CSc2c3c(nc4ccccc24)CCC3)cc(OC)c1OC	i	-6	-14	0
18	CC(=O)N1c2ccc(S(=O)(=O)NCCC(=O)Nc3ccc(C)c(F)c3)cc2CC1C (stereo unspecified)	i	7	4	0
19	O=C(c1cccnc1)N1CCC(c2nc3ccccc3[nH]2)CC1	i	.	.	.
20	COC(C[C@H](O)C[C@H](O)COCc1ccccc1)OC	i	-19	9	3
21	Cn1c(=O)n(C)c2cc(S(=O)(=O)Nc3ccccc3O)ccc21	i	-16	.	5
22	CSCCNC(=O)C1(C)CCN1C(=O)c1cc(C)n(C)n1 (stereo unspecified)	.	-13	-20	5
23	COc1ccccc1NC(=O)C(C)NS(=O)(=O)c1ccccc1 (stereo unspecified)	i	.	.	4
24	CSc1nc2c(c(=O)[nH]1)C(c1cccc(Br)c1)CC(=O)N2 (stereo unspecified)	.	.	-8	6

nr	MT1-MMP act inh RFP	PABP polyA inh	CSC inhib	eIF4H inh
13	-2	1	6	-7
14	4	6	.	-7
15	3	-8	-9	-9
16	5	43	-1	8
17	-4	0	-8	2
18	-1	-6	-14	-1
19	.	6	.	-1
20	6	-4	.	1
21	8	2	-7	19
22	8	.	.	.
23	3	-4	-14	0
24	3	-2	-5	1

# Continuation.
nr	Compound	Rce1 inh	Yeast UUG start	Env fusion inh	MT1-MMP act inh
25	CCc1cccc(NC(=O)Nc2cccs2)c1	i	-16	.	-1
26	COC(=O)c1cc(S(=O)(=O)Nc2c(C)cccc2C)cn1C	i	-24	9	2
27	CC1(C)OC(=O)C2=C(CC(c3ccccc3)OC2CCc2ccccc2)O1 (stereo unspecified)	.	-11	-1	-7
28	O=C(O)CSc1nc2ccccc2n1Cc1ccccc1	i	-17	1	3
29	CC(=O)Nc1ccc(S(=O)(=O)Nc2nc3ccccc3nc2N2CCOCC2)cc1	.	-5	-83	-1
30	CCCCOc1ccc(-c2c(C#N)c(N)[nH]c(=S)c2C#N)cc1	i	-31	-6	4
31	COc1ccc2c3n(nc2c1)CCN=C3c1ccc(Cl)cc1	.	-18	-6	-2
32	Cc1nn(-c2ccccc2)c(N)c1N=O	i	-9	10	2
33	CN(C)c1ccc(/C=N/n2c(COc3ccccc3)n[nH]c2=S)cc1	i	-6	?	1
34	CC(C)(C)OC(=O)N/N=C\c1ccc[nH]1	i	.	2	2
35	CN(C)S(=O)(=O)Oc1cccc(C(=O)Nc2ccc(Cl)c(Cl)c2)c1	.	-24	35	-1
36	O=C(Cc1ccc(Cl)cc1)NNC1CC(=O)N(c2ccc3ccccc3c2)C1=O (stereo unspecified)	i	-10	5	4

nr	MT1-MMP act inh RFP	PABP polyA inh	CSC inhib	eIF4H inh
25	1	21	5	6
26	6	-6	-5	-5
27	-7	.	.	.
28	5	3	-8	-6
29	1	.	-7	.
30	-1	16	5	-5
31	0	.	-4	.
32	2	2	-20	-2
33	-3	-2	-6	10
34	6	18	-6	6
35	-19	-6	?	0
36	7	0	-1	4

# More records follow:
nr	Compound	Rce1 inh	Yeast UUG start	Env fusion inh	MT1-MMP act inh
37	Cc1cccc(OCC(=O)Nc2ccc(NC(=O)c3ccco3)c(C)c2)c1	i	-7	4	-1
38	COc1ccc(CCCNC(=O)C2CCC(=O)N(Cc3ccc(Cl)cc3)C2)cc1 (stereo unspecified)	i	4	5	5
39	COc1ccccc1Oc1nc(C)c(C(C)=O)cc1C#N	i	.	15	5
40	CCCCn1c(N)c(N(CCOC)C(=O)CSc2nnc(-c3ccc(F)cc3)n2N)c(=O)[nH]c1=O	i	-19	3	0
41	CCOc1ccc(CC(=O)NNC(=S)NC)cc1Br	i	-19	5	3
42	COc1ccc(CNc2ccc(-c3ccc(OC)cc3)nn2)cc1	i	-13	-119	-1
43	COc1cc(CN2CCN(CCc3ccccc3)C(CCO)C2)cc(OC)c1 (stereo unspecified)	i	.	11	1
44	CCCC(C)NC(=O)Cc1ccccc1 (stereo unspecified)	i	.	8	1
45	COc1cccc(CNC(=O)CCNS(=O)(=O)c2cccs2)c1	i	-2	-27	-5
46	CCOC(=O)C1=C(C)N=C2SC(C)C(=O)N2C1c1ccc(OC(C)=O)c(OC)c1 (stereo unspecified)	i	-8	.	2
47	COc1ccc(NC(=O)CN(C)C(=O)CCc2c[nH]c3ccccc23)cc1	.	8	-17	4
48	CCCN1CCC(=O)N(CCSc2ccc(C)cc2)CC1	i	-11	-42	0

nr	MT1-MMP act inh RFP	PABP polyA inh	CSC inhib	eIF4H inh
37	0	-8	6	1
38	-12	-12	.	4
39	-2	3	-1	12
40	6	.	1	.
41	-3	-10	1	-8
42	-6	-10	-5	-10
43	2	3	16	7
44	5	-12	-12	1
45	-1	-4	-5	-8
46	2	10	3	10
47	0	8	-3	-17
48	0	3	.	2

# Molecules from the list above with fluorine:
nr	Compound	Rce1 inh	Yeast UUG start	Env fusion inh	MT1-MMP act inh
3	CC(C)(C)NC(=O)COC(=O)/C=C/c1ccc(F)cc1	i	.	.	2
10	CCOc1cc(/C=N/NC(=O)Cn2nc([N+](=O)[O-])cc2C)ccc1OCc1ccc(F)cc1	i	-11	.	2
18	CC(=O)N1c2ccc(S(=O)(=O)NCCC(=O)Nc3ccc(C)c(F)c3)cc2CC1C (stereo unspecified)	i	7	4	0
40	CCCCn1c(N)c(N(CCOC)C(=O)CSc2nnc(-c3ccc(F)cc3)n2N)c(=O)[nH]c1=O	i	-19	3	0

nr	MT1-MMP act inh RFP	PABP polyA inh	CSC inhib	eIF4H inh
3	4	18	-9	5
10	-10	-5	-13	-13
18	-1	-6	-14	-1
40	6	.	1	.

# The list continues.
nr	Compound	Rce1 inh	Yeast UUG start	Env fusion inh	MT1-MMP act inh
49	CCN1CCN(c2nnc(-c3ccc(C)cc3)c3ccccc23)CC1	i	-19	12	3
50	COCCCN1C(=O)C(CC(=O)NCCCCc2ccccc2)CC(C(=O)N2CCOCC2)=C1C (stereo unspecified)	.	-7	17	8
51	Fc1ccc(CSc2ncnc3ccccc23)cc1	i	.	4	-13
52	O=c1/c(=C/c2cccc3ccccc23)sc2ncnn12	i	.	-94	-4
53	O=c1cc(CCl)[nH]c2nc3ccccc3n12	i	-17	-33	-2
54	COc1ccccc1NC(=O)c1cc(S(=O)(=O)NC2CCCC2)ccc1F	i	-14	-9	4
55	O=[N+]([O-])c1cc(S(=O)(=O)N2CCOCC2)ccc1N1CCCC1	i	.	3	15
56	Cc1ccc(C(O)c2ncc(-c3cccc(C(F)(F)F)c3)[nH]2)cc1F (stereo unspecified)	.	-20	5	6
57	CN(C)C(CNC(=O)c1ccc(S(=O)(=O)Nc2ccccc2)cc1)c1ccco1 (stereo unspecified)	i	.	4	4
58	CCCCc1cc(=O)oc2cc(OCC(=O)N3CCOCC3)ccc12	+	-9	15	1
59	CCN1C(=O)/C(=C/c2nc3ccccc3c(=O)n2-c2ccccc2)c2ccccc21	i	5	.	-26
60	COc1ccc(CC(=O)Nc2nc(-c3ccccc3)c(C(C)=O)s2)cc1OC	i	-16	24	-8

nr	MT1-MMP act inh RFP	PABP polyA inh	CSC inhib	eIF4H inh
49	1	5	-24	-8
50	8	.	.	.
51	-6	8	11	-5
52	1	-2	-4	-2
53	1	5	-7	-5
54	0	3	-14	-5
55	1	6	-12	5
56	-2	.	.	.
57	4	.	17	.
58	2	-1	.	-8
59	-27	0	22	9
60	-15	-2	15	-7

# 2 records picked at random from the list so far:
nr	Compound	Rce1 inh	Yeast UUG start	Env fusion inh	MT1-MMP act inh
55	O=[N+]([O-])c1cc(S(=O)(=O)N2CCOCC2)ccc1N1CCCC1	i	.	3	15
49	CCN1CCN(c2nnc(-c3ccc(C)cc3)c3ccccc23)CC1	i	-19	12	3

nr	MT1-MMP act inh RFP	PABP polyA inh	CSC inhib	eIF4H inh
55	1	6	-12	5
49	1	5	-24	-8

# Next records.
nr	Compound	Rce1 inh	Yeast UUG start	Env fusion inh	MT1-MMP act inh
61	COc1ccc(Cn2c(=O)c3[nH]cnc3n(-c3ccccc3C)c2=O)cc1	i	.	9	-5
62	CCC(CC)c1nnc(NC(=O)c2cccc(S(=O)(=O)N3CCc4ccccc43)c2)s1	i	-18	.	-3
63	Cc1ccc(C)c(Oc2ncnc(N)c2[N+](=O)[O-])c1	i	.	9	3
64	CC(C)CN1CCN(Cc2cn(C)c3ccccc23)CC1CCO (stereo unspecified)	i	-4	-7	-2
65	CC(C)COC(=O)n1c(=O)oc2ccc(S(=O)(=O)N3CCCCC3)cc21	i	-15	4	-2
66	O=C(C(=O)N1CCN(c2ccc(F)cc2)CC1)c1c[nH]c2ccccc12	i	-9	17	3
67	CC(NC(=O)Cn1ccsc1=N)C12CC3CC(CC(C3)C1)C2 (stereo unspecified)	.	-2	.	-3
68	O=C(c1cccs1)N(Cc1nc2sc3c(c2c(=O)[nH]1)CCCC3)C1CCCC1	i	-25	-23	-3
69	CN(C(=O)C(Cl)Cl)c1ccc(OC(=O)c2ccco2)cc1	i	1&-17	.	1

nr	MT1-MMP act inh RFP	PABP polyA inh	CSC inhib	eIF4H inh
61	-9	-6	64	0
62	-14	0	40	-7
63	5	-10	-2	-8
64	4	6	-1	-4
65	-10	3	-2	8
66	5	6	-8	-17
67	-3	2	5	-7
68	-8	-4	1	-5
69	3	-10	3	-3
